Assay outcomes (PubChem BioAssay)
MARV entry inh: Marburg virus entry inhibition; Marburg virus pseudotyped entry inhibition, cell reporter; control for the full effect not named in the record; about a third of the inactives were read at about 46 µM; Potency, µM (top dose mostly 37.8 µM), for the others: at the highest dose activity change, negative = inhibition, actives largely listed as inhibitors; 1.8% of 300,000 active; active = well fitted inhibition curve with a large enough effect; inconclusive = small, poorly fitted or top-dose-only effect, or effect the other way; inactive = flat fitted curve, though single readings scatter; tested in HEK293 cells; about a fifth of its hits are not listed in these tables; further: on the % scale 0 is the no-effect control and ±100 the full control effect; luciferase read-out
SARS PLpro yeast: inhibitors of SARS-CoV papain-like protease in yeast; S. cerevisiae expressing SARS-CoV PLpro, growth rescue; control for the full effect not named in the record; 0.19% of 330,000 active; AID 485353; Potency, µM (series often up to 32.9 µM), without a hit: at the top dose activity, positive = growth rescue; active means well fitted rising curve with a large enough effect; inconclusive means small, poorly fitted or top-dose-only effect; inactive means no such curve, though single readings can be large or run the other way; further: 0% is about no effect; nearly all actives have a fitted effect of over 55% in size; growth read by luminescence after 48 h
StopGo reporter: lowers the luciferase signal of an FMDV 2A StopGo reporter. 1.2% of 410,000 active. AID 1159524. Potency, µM (doses to about 57.9 µM), for inactives: top-dose signal change, negative = less light. human cells with a luciferase reporter of 2A StopGo recoding; control for the full effect not named in the record; active = well fitted falling curve with a large enough effect; inconclusive = small, poorly fitted or top-dose-only effect; inactive = no such curve, though single readings can be large or run the other way; tested in HEK293T cells; further: on the % scale 0 is the no-effect control and ±100 the full control effect; nearly all actives have a fitted effect of over 45% in size; luciferase light after 4 h
NS1 inh: influenza NS1 inhibition; AID 2326; Potency, µM (highest dose often 46.1 µM), without a hit: at the highest dose activity, positive = more growth; 0.4% of 270,000 active; S. cerevisiae slowed by influenza A NS1, growth recovery by OD600; active means well fitted rising curve with a large enough effect; inconclusive means small, poorly fitted or top-dose-only effect; inactive means no such curve, though single readings can be large or run the other way; further: nearly all actives have a fitted effect of over 50% in size
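Compounds were scored for reversing the slow growth caused by influenza A NS1 in S. cerevisiae, measured by optical density at 600 nm. Assay medium contained 2% galactose at pH 6.0; NS1-free yeast of the same strain were the positive control.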
Cruzain inh Det: blocks cruzain activity in presence of Triton detergent | Potency, µM, without a hit: max response, negative = inhibition, actives largely listed as inhibitors | purified cruzain, Z-FR-AMC fluorescence, 0.01% Triton | AID 1478 | 0.43% of 200,000 active;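 further: plate controls were neutral wells for no effect and buffer without enzyme for full effect; nearly all actives have a fitted effect of over 40% in size; top concentration of the series not given in the record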
Target sequence (P25779 123-467 limits assumed): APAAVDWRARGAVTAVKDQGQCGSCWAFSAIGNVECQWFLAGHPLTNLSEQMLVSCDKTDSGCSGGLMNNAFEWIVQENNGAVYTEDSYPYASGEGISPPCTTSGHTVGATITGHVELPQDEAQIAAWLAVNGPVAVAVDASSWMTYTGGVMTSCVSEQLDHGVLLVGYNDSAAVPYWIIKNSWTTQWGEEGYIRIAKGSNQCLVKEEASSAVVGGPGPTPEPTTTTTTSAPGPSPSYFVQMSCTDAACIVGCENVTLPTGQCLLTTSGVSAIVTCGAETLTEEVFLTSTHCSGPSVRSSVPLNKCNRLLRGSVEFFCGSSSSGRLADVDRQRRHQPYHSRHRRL
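Z-FR-AMC hydrolysis (2 uM substrate) by cruzain (1.5 nM) monitored kinetically at ex 360/em 450 nm after 15 min room-temperature compound exposure; 0.01% Triton X-100, pH 5.5, 5 mM DTT.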
RE007 growth inh: less growth of the S. pombe RE007 Vpr strain; S. pombe RE007 Vpr strain, BacTiter-Glo ATP luminescence, 24 h; control for the full effect not named in the record; 0.21% of 360,000 active; Potency, µM (highest dose often 92.2 µM), for the others: at the highest dose activity change, negative = less growth; AID 651644; active = well fitted falling curve with a large enough effect; inconclusive = small, poorly fitted or top-dose-only effect; inactive = no such curve, though single readings can be large or run the other way;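 further: on the % scale 0 is the no-effect control and ±100 the full control effect; nearly all actives have a fitted effect of over 50% in size; the assay follows cell death caused by Vpr and the record does not say whether a fall means rescue or toxicity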
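Fission yeast RE007 carrying one integrated HIV-1 vpr copy, seeded at OD 0.01 in PMG+AL medium with 23 nL pinned compound. Grown 24 h at 30 degrees; viability read by BacTiter-Glo luminescence after 5 min.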
LASV entry inh: Lassa virus entry inhibition; 1.2% of 300,000 active; Potency, µM (titrated, usually from 37.9 µM), without a hit: at the top dose activity change, negative = inhibition, actives largely listed as inhibitors; AID 540256; Lassa virus pseudotype entry inhibition, cell reporter; control for the full effect not named in the record; active means well fitted inhibition curve with a large enough effect; inconclusive means small, poorly fitted or top-dose-only effect, or effect the other way; inactive means flat fitted curve, though single readings scatter; tested in HEK293 cells; further: on the % scale 0 is the no-effect control and ±100 the full control effect; nearly all actives have a fitted effect of over 50% in size; luciferase read-out
Cruzain noTriton: inhibitors of Trypanosoma cruzi cruzain without detergent; P25779; purified cruzain, Z-FR-AMC fluorescence, no detergent; Potency, µM, for inactives: max response, negative = inhibition, most hits filed as inhibitors; 2.3% of 200,000 active;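 further: plate controls were enzyme without inhibitor for no effect and buffer without enzyme for full effect; nearly all actives have a fitted effect of over 40% in size; top concentration of the series not given in the record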
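Detergent-free condition (0.00005% Triton X-100) in acetate buffer pH 5.5 with DTT. 1.5 nM enzyme and compound were pre-mixed 15 min, then 2 uM Z-FR-AMC substrate added; reaction progress from fluorescence change between first and third reads (60 s).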
An asterisk follows results filed as active; ? = inconclusive; . = no result given; [ ] = dose if it differs, or a comment. Unless noted, the call rests on the fitted dose curve; in most records, active means well fitted curve in the direction sought with a large enough effect; inconclusive means small, poorly fitted or top-dose-only effect, or another doubt; inactive means no such curve, though single readings can be large; an effect the other way counts as inactive or inconclusive. Potency means the concentration at half of the fitted maximal effect. Compounds were not picked by outcome, and some 4.6% of all compounds hit somewhere here.

SMILES	MARV entry inh	SARS PLpro yeast	StopGo reporter	NS1 inh	Cruzain inh Det	RE007 growth inh	LASV entry inh	Cruzain noTriton
CCCCOc1ccc(CSC(CC(=O)O)C(=O)O)cc1 (stereo not drawn)	5%	-5%	-2%	8%	-1.6%	5%	-6%	-8%
CCN(CC)CCN(C(=O)c1cccc([N+](=O)[O-])c1)c1nc2ccc(OC)cc2s1	1%[46.1 µM]	3%	-5%	.	.	-6%	-13%	.
CN(C)c1ccc(NC(=O)CSc2nnc(C3CCCCC3)n2N)cc1	-2%[46.1 µM]	2%	14%	9%	.	-17%	19%[46.1 µM]	.
CN(Cc1ccon1)C(=O)C1CCC(=O)N(Cc2ccc(Cl)cc2)C1 (stereo not drawn)	1%	2%	-5%	-8%	.	4%	-13%	.
Cc1nc2nc(C)c(CCC(=O)NCc3cccc(Cl)c3)c(C)n2n1	-4%[46.1 µM]	.	6%	.	-0.3%	.	15%[46.1 µM]	-2%
COC(=O)c1ccc(C(=O)OC)c(NC(=S)N2CC(C)CC(C)C2)c1 (stereo not drawn)	8%	?	15%	8%	-2.2%	-23%	?	1%
CCOC(=O)c1c(C)oc2nc(C)nc(NCC3CCN(Cc4ccc(F)cc4)CC3)c12	.	.	-14%	.	3.9%	.	30%[46.1 µM]	-7%
CCc1nnc(NC(=O)CN2CCN(c3ccccc3F)CC2)s1	3%	-1%	-6%	1%	.	3%	0%	.
CCOC(=O)N1CCC(N2CCCC(C(=O)c3ccccc3OC)C2)CC1 (stereo not drawn)	3%[46.1 µM]	0%	-4%	-2%	.	-11%	-2%	.
COc1cccc(C(=O)NC2CCN(CC(=O)Nc3cccc(C)c3C)CC2)c1	.	0%	-9%	0%	.	9%	.	.
COc1cccc2cc(C(=O)NCc3ccccc3)c(=N)oc12	-22%	?	-1%	23%	.	0%	-7%	.
O=C(Cc1ccccc1)NNC1=NS(=O)(=O)c2ccccc21	?	1%	13%	4%	.	-2%	-3%	.
CCCCOc1ccc(S(=O)(=O)N2CCCCCC2)cc1	-29%	-6%	.	-5%	0.1%	15%	-21%	2%
COCCN(CCOC)Cc1c(O)ccc2c3c(c(=O)oc12)CCC3	0%	2%	6%	3%	?	-11%	15%	?
COc1cccc(NC(=O)c2cc(Cl)nnc2Cl)c1	?	-1%	-15%	.	.	56%	?	.
CCOC(=O)c1c(C)[nH]c(C)c1S(=O)(=O)N1CCC(C(=O)Nc2ccc(OCC)cc2)CC1	.	.	-12%	.	-1.0%	.	-5%[46.1 µM]	?
COC(=O)C1=C(C(=O)OC)[C@@H]2N(C)c3ccccc3[C@@]23C[C@@H](C(=O)OC)N(C(=O)c2ccc(Br)cc2)C3=N1	-14%[14.2 µM]	-1%	-24%	-10%	.	-10%	13%[14.3 µM]	.
O=C(NCC(=O)N1CCCC1)c1ccc(Br)cc1	22%[46.1 µM]	-1%	34%[activator]	6%	.	5%	.	.
Cc1c(CC(=O)NC(C)C)c(=O)oc2cc3c(cc12)CCC(C)(C)O3	11%[46.1 µM]	-1%	14%	2%	.	6%	-10%[46.1 µM]	.
CCOC(=O)c1[nH]c(C)c(/C(O)=C2\C(=O)C(=O)N(CCCn3ccnc3)C2c2ccncc2)c1C (stereo not drawn)	-25%	-1%	-9%	-5%	-2.6%	17%	-16%	-5%
COC(=O)c1cccc(N2C(=O)C3CC=CCC3C2=O)c1 (stereo not drawn)	-22%	-9%	-17%	-1%	-1.3%	-3%	15%	3%
CC(=O)c1cc(CC(=O)N2CCc3c([nH]c4ccccc34)C2c2ccccn2)cs1 (stereo not drawn)	?	0%	13%	0%	.	26%	?	.
COc1ccc(C2=C(Nc3ccc(C)cc3)c3ccccc3C2=O)cc1	1%	-5%	-6%	11%	-7.2%	20%	-16%	-3%
CCOc1ccccc1C=NNC(=O)C1CC1	-5%[46.1 µM]	.	5%	.	.	-5%	1%[46.1 µM]	.
O=c1oc2c(CN3CCOCC3)c(O)ccc2cc1-c1ccc(Cl)cc1	.	.	-10%	.	4.9%	.	1%[46.1 µM]	?
CCCCc1ccccc1NC(=S)NC1CCCC1	-15%[46.1 µM]	7%	7%	-72%	.	0%	?	.
O=C(NCc1ccccn1)C1CCN(S(=O)(=O)c2ccccc2C(F)(F)F)CC1	-6%	-1%	3%	.	.	0%	1%	.
CCOC(=O)c1sc(=S)n(-c2ccccc2OC)c1N	-4%	-26%	-7%	-67%	-4.4%	1%	-2%	-5%
O=C(NNC(=S)NCc1ccccc1)c1ccc(OC(F)F)cc1	6%	-2%	-11%	-1%	-0.9%	.	3%	5%
O=C(O)C1CC(=O)N(c2ccc(OCc3c(F)cccc3Cl)cc2)C1 (stereo not drawn)	-5%	0%	-9%	10%	2.9%	12%	-10%	2%
COc1cc(N(C)C)c([N+](=O)[O-])cc1C(=O)N1CCN(Cc2ccccc2)CC1	-24%[46.1 µM]	0%	-26%	.	.	1%	-4%	.
COc1ccccc1/C=C1\C(=O)Nc2ccccc21	.	-9%	0%	-33%	.	-24%	.	.
O=C(CSc1nncc(=O)[nH]1)NC1CCCCC1	8%[46.1 µM]	1%	10%	9%	.	-14%	.	.
O=C1CCSc2ccc(Cl)cc2N1Cc1ccccc1	-12%	-2%	-19%	2%	4.6%	-3%	8%	2%
CCc1cccc(NC(=O)Cn2c(=O)n(Cc3ccccc3)c(=O)c3c(C)c(C(=O)N(C)C)sc32)c1	.	.	1%	.	-3.8%	.	-17%[46.1 µM]	?
COc1cc(C=O)c(Br)cc1OC1CCCC1	0%[46.1 µM]	-7%	-16%	-14%	0.1%	-11%	2%	1%
CCCCC(=O)Nc1cccc(-c2ccc3nncn3n2)c1	.	2%	4%	-5%	.	12%	.	.
O=c1cc(C(F)(F)F)[nH]c2c(OC(F)(F)F)cccc12	?	-6%	?	-65%	.	-13%	11%[46.1 µM]	.
O=C(c1cnc2sccn2c1=O)N1CCN(c2ccccc2Cl)CC1	35%[46.1 µM]	2%	11%	0%	.	24%	-3%[46.1 µM]	.
CCOP(=O)(OCC)C(Nc1cccc(C(F)(F)F)c1)c1ccc(C)cc1 (stereo not drawn)	?	-21%	-13%	-18%	-16%	-1%	-57%	?
C#CCNc1cc(-c2ccccc2)nc2ncnn12	.	0%	0%	-2%	.	19%	.	.
COc1ccc(NC(=O)Cn2c(=O)oc3cc(S(=O)(=O)N4CCC(C)CC4)ccc32)c(OC)c1	?	.	?	.	-7.3%	.	7%[46.1 µM]	10%
CN(C)C(=O)c1c(NC(=O)c2ccccc2)sc2c1CCC2	-11%	-11%	10%	-6%	.	-9%	2%	.
COc1ccccc1/C=C/C(=O)NCC(=O)N1CCC(N(C)C2CCCC2)CC1	-5%	0%	-13%	.	.	0%	10%	.
CCN1CCN(c2oc(-c3ccc(COc4ccc(C)cc4)o3)nc2C#N)CC1	-17%[46.1 µM]	.	-26%	.	-7.4%	.	-29%[46.1 µM]	6%
CCCCc1cc(=O)oc2cc(OCC(=O)Nc3ccccn3)ccc12	.	-6%	32%[activator]	2%	.	4%	.	.
Cc1nnc(NC(=O)c2ccccc2Br)s1	14%	?	32%[activator]	-17%	3.2%	-7%	27%	-12%
COc1ccccc1N1CCN(C(=O)CCS(=O)(=O)c2cc(Br)cc3c2N(C(C)=O)CC3)CC1	14%[46.1 µM]	.	-11%	.	-0.6%	.	-6%[46.1 µM]	?
Cc1ccccc1NC(=O)Cn1c(=O)n(CCCCCC(=O)NCc2ccc3c(c2)OCO3)c(=O)c2sccc21	8%[46.1 µM]	.	-8%	.	-1.8%	.	?	-19%
COC(=O)c1ccccc1NC(=O)Nc1ncccc1C	.	0%	2%	5%	.	20%	.	.
(list continues)
SMILES	MARV entry inh	SARS PLpro yeast	StopGo reporter	NS1 inh	Cruzain inh Det	RE007 growth inh	LASV entry inh	Cruzain noTriton
Cc1nc2ccccn2c1/C(O)=C1\C(=O)C(=O)N(CCCn2ccnc2)C1c1ccncc1 (stereo not drawn)	-3%	-12%	-25%	4%	-5.3%	-1%	0%	-1%
Cc1ccc(OCCN2C(=O)NC3(CCc4ccccc4C3)C2=O)cc1 (stereo not drawn)	-1%	14%	-22%	9%	-0.5%	-5%	-12%	5%
Cc1c(NC(=O)C(C)OC(=O)c2cccnc2)c(=O)n(-c2ccccc2)n1C (stereo not drawn)	23%[46.1 µM]	13%	-11%	0%	-2.0%	-4%	23%	-15%
CC1(c2ccccc2)CC(C)(C)N(C(=O)c2ccccc2Cl)c2ccccc21 (stereo not drawn)	20%[46.1 µM]	.	28µM*	.	-0.5%	.	-1%[46.1 µM]	1%
COC(=O)c1cnc(Oc2ccc(NC(=O)NC(=O)c3c(F)cccc3F)cc2)cc1C(F)(F)F	-22%[46.1 µM]	0%	5%	3%	.	5%	3%[46.1 µM]	.
CC1CCC(NS(=O)(=O)c2ccc(Cl)s2)CC1 (stereo not drawn)	?	2%	50%[activator]	.	.	-22%	27%	.
COC(=O)c1cc(NC(=O)c2cc(-c3ccc(OC)cc3)oc2C(F)(F)F)ccc1N1CCOCC1	.	-1%	-25%	9%	.	1%	.	.
O=C(c1c[nH]c2ccccc12)C(O)C(c1ccccc1)N1CCOCC1 (stereo not drawn)	-3%	4%	23%	-3%	-1.8%	9%	-14%	-7%
Cc1c(C)c2ccc(OC(C)C(=O)NCCCn3ccnc3)c(C)c2oc1=O (stereo not drawn)	.	-10%	0%	5%	.	3%	.	.
O=C(Nc1ccc(Cl)cn1)c1cccc(S(=O)(=O)N2CCCC2)c1	-10%[46.1 µM]	2%	-28%	2%	.	3%	?	.
N#Cc1cccc(CSc2ncnc(N)n2)c1	1%[46.1 µM]	0%	-8%	0%	.	2%	23%[46.1 µM]	.
CN(C)c1cc2c(cc1NC(=O)c1ccccc1Cl)n(C)c(=O)n2C	?	18%	?	-45%	.	-3%	?	.
CCOC(=O)c1[nH]c(C)c(C(=O)NC(C)(C)C)c1C	0%	-11%	0%	-2%	0.8%	5%	-1%	-5%
CCOc1ccc2[nH]c(=O)c(CN(CCO)C(c3nnnn3C3CCCCC3)C(C)C)cc2c1 (stereo not drawn)	-12%	-5%	2%	-10%	-5.8%	-13%	?	19%
